CFTR F508del: compounds raising F508del-CFTR protein level – cell-based, HeLa F508del-CFTR, immunofluorescence, viability, primary screen (AID 1224863) | calls, or highest fold increase where a dose series was run | HeLa F508del-CFTR, immunofluorescence total CFTR, 24 h; by the record results were divided by relative cell number; some inactives read as strong as hits | actives 0.1% (n = 10,000); in the data nearly all actives have a first-pass fold increase above 1.5; a few of its hits are not listed in these tables;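 note: total CFTR protein by anti-CFTR immunofluorescence in fixed cells; first pass at 25 µM or 10 µg/mL by library and series up to twice that; 1 = untreated cells; first-pass hits also needed half or more of the cells alive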
CFTR F508del fold 25 µM: also measured in CFTR F508del; calls as there; fold increase; measured here: primary screen single dose 25 uM; library dosed in µM
CFTR F508del fold 10 ug/mL: also measured in CFTR F508del; calls as there; fold increase; measured here: primary screen 10 ug/mL
CFTR F508del viability 25 µM: second read-out of CFTR F508del, no call of its own (marks repeat the call); viability, %; measured here: primary viability 25 uM; library dosed in µM;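 0% = killed and 100% = untreated cells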
CFTR F508del viability 10 ug/mL: also measured in CFTR F508del; calls as there; viability, %; measured here: primary viability 10 ug/mL;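 0% = killed and 100% = untreated cells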
* marks the source's active call; other numbers are inactive results; i = inactive; / = no result given; & = joins results of further samples. These rows are one share of the data; rates above refer to the full screens.

SMILES | CFTR F508del | CFTR F508del fold 10 ug/mL | CFTR F508del viability 10 ug/mL | others
CC(Sc1nnnn1-c1cccc(F)c1)c1nnnn1-c1ccccc1 (stereo unspecified) | i | 0.83 | 95
CC(C)CC(N)C(=O)N(C)C (stereo unspecified) | i | 0.95 | 96
Clc1ccc(-c2cnc(COc3ccc(-c4nnco4)cc3)o2)cc1 | i | 1 | 90
CCCc1cc(C(=O)NC(CCC(=O)O)C(=O)O)sc1C (stereo unspecified) | i | 1 | 102
CC(NC(=O)CN1C(=O)NC(C)(c2ccco2)C1=O)C12CC3CC(CC(C3)C1)C2 (stereo unspecified) | i | 0.91 | 87
Cc1nn(Cc2ccccc2)c(C)c1CNS(=O)(=O)N1CCCC(C)C1 (stereo unspecified) | i | 1 | 92
COc1ccc(CCCN(C)S(=O)(=O)c2cn(C)c(=O)n(C)c2=O)cc1OC | i | 1 | 101
Nc1ccc(N=Nc2ccccc2)c(N)n1 | i | / | / | CFTR F508del fold 25 µM=1.3;CFTR F508del viability 25 µM=79
Cn1c(N)c(C(=O)CN2CCC(O)CC2)c(=O)n(C)c1=O | i | 1.1 | 103
COc1cc(NS(=O)(=O)c2ccc(N)cc2)ncn1 | i | / | / | CFTR F508del fold 25 µM=1;CFTR F508del viability 25 µM=90
Nc1cc(F)cc(S(N)(=O)=O)c1 | i | 0.94 | 97
CCOC(=O)c1[nH]c(C)c(C(=O)OCC(=O)c2cccs2)c1C | i | 0.9 | 88
CC(C)(C)C(NCN1C(=O)NC2(CCCCCCC2)C1=O)c1ccc(F)cc1 (stereo unspecified) | i | 0.96 | 98
CCOC(=O)c1c(C)oc2ncn(CC(=O)OC)c(=O)c12 | i | 1.1 | 96
Cc1cc(/C=C/C(=O)n2ccnc2)c(C)n1C1CC1 | i | 0.89 | 80
Cc1nn(CN2CCN(c3nnnn3-c3ccccc3)CC2)c(C)c1[N+](=O)[O-] | i | 0.95 | 95
CCCCOCCOCCOCc1cc2c(cc1CCC)OCO2 | i | / | / | CFTR F508del fold 25 µM=1;CFTR F508del viability 25 µM=88
O=C(O)CN1CCN(CC(=O)O)CC1 | i | 1.1 | 89
CNS(=O)(=O)Cc1ccc(CNS(=O)(=O)c2cccc3nsnc23)cc1 | i | 0.99 | 84
CCN1CCN(C(=O)N[C@@H](C(=O)N[C@@H]2C(=O)N3[C@@H]2SC(C)(C)[C@@H]3C(=O)O)c2ccccc2)C(=O)C1=O | i | / | / | CFTR F508del fold 25 µM=1.1;CFTR F508del viability 25 µM=99
C[N+]1(C)C2CC[C@H]1CC(OC(=O)C(O)c1ccccc1)C2 (stereo partly specified) | i | / | / | CFTR F508del fold 25 µM=1.1;CFTR F508del viability 25 µM=92
CC(=O)[C@H]1CCC2C3CCC4=CC(=O)CC[C@]4(C)C3CC[C@@]21C (stereo partly specified) | i | / | / | CFTR F508del fold 25 µM=0.88;CFTR F508del viability 25 µM=89
O=C(OCC(=O)N1CCc2ccccc21)c1cc2ccccc2cc1O | i | 1.1 | 74
O=C(CNC(=O)C1CC(=O)N(c2ccc(F)c([N+](=O)[O-])c2)C1)Nc1ccc(F)c(F)c1 (stereo unspecified) | i | 1 | 85
Cc1cc(C(=O)COC(=O)C23CC4CC(CC(Cl)(C4)C2)C3)c(C)n1Cc1ccc2c(c1)OCO2 | i | 1.1 | 87
The listing continues.
SMILES | CFTR F508del | CFTR F508del fold 10 ug/mL | CFTR F508del viability 10 ug/mL | others
Cc1nc(SCC(=O)c2cc(C)n(Cc3ccco3)c2C)n[nH]1 | i | 1 | 89
CC(C)=CC(=O)NC1CC2CC1C1CCCC21 (stereo unspecified) | i | 0.93 | 76
Cn1cnnc1CNS(=O)(=O)c1ccc2c(c1)OCCCO2 | i | 0.95 | 99
CC(Sc1nnc(-c2ccccc2)n1C)c1nnc(-c2ccccc2)o1 (stereo unspecified) | i | 0.91 | 91
NS(=O)(=O)c1cc2c(cc1Cl)NC(CSCc1ccccc1)=NS2(=O)=O | i | / | / | CFTR F508del fold 25 µM=0.99;CFTR F508del viability 25 µM=84
CC(C)c1nc(SCC(=O)C(C)(C)C)n[nH]1 | i | 0.98 | 94
O=C(CNC(=O)c1ccoc1)NC1CCCCC1 | i | 0.93 | 96
O=S(=O)(NCCc1ccc2c(c1)OCCO2)c1cccc2nsnc12 | i | 1 | 82
Cc1cc(OCC(O)CN2CCc3ccccc3C2)cc(C(C)C)c1 (stereo unspecified) | i | 1 | 87
COc1ccc(NS(=O)(=O)c2ccc(N)cc2)nn1 | i | / | / | CFTR F508del fold 25 µM=1.1;CFTR F508del viability 25 µM=86
COc1cc(F)c(S(=O)(=O)N(CC2CCOC2)C2CC2)cc1OC (stereo unspecified) | i | 1 | 90
CC(Nc1nc2ccccn2c(=O)c1[N+](=O)[O-])C1CC2CCC1C2 (stereo unspecified) | i | 0.79 | 79
CC(C)(C)CC(C)(C)c1ccc(O)c(Cc2ccc(Cl)cc2Cl)c1 | i | / | / | CFTR F508del fold 25 µM=0.76;CFTR F508del viability 25 µM=51
O=C(CSc1nnnn1C1CCCCC1)N1CCc2sccc2C1 | i | 1.1 | 87
O=C(O)CCC(NC(=O)C12CC3CC(CC(C3)C1)C2)C(=O)O (stereo unspecified) | i | 1.1 | 104
CSc1ccc(/C=C(/C#N)c2nc(C)cs2)cc1 | i | 0.99 | 65
O=C(NCCNc1ccc(C(F)(F)F)cc1[N+](=O)[O-])C12CC3CC(CC(O)(C3)C1)C2 | i | 1.1 | 96
CC1(C(=O)Nc2ccc(S(=O)(=O)c3ccc([N+](=O)[O-])cc3)cc2)CC1(Cl)Cl (stereo unspecified) | i | 0.86 | 91
C=C(Cl)CN1C(=O)NC(C)(c2ccc([N+](=O)[O-])cc2)C1=O (stereo unspecified) | i | 1.1 | 92
CC1CCC2(CC1)NC(=O)N(CC(O)COc1ccc(Br)cc1)C2=O (stereo unspecified) | i | 0.96 | 92
Cc1cnc2c(S(=O)(=O)N(C)C3CCc4ccccc43)cccc2c1 (stereo unspecified) | i | 0.98 | 65
OCC1CCCN(c2ncnc3sc4c(c23)CCCC4)C1 (stereo unspecified) | i | 0.89 | 89
CCOC(=O)c1c(NC(=O)C(C)N(C)C2CCCCC2)sc2c1CCC(C)C2 (stereo unspecified) | i | 1 | 77
Clc1ccc(-c2csc(N3CCCCC3)n2)c(Cl)c1 | i | 1.1 | 78
CN(C)c1ccc(CNCc2cc(Cl)ccc2OCc2cccnc2)cc1 | i | 0.88 | 71
(more compounds)
SMILES | CFTR F508del | CFTR F508del fold 10 ug/mL | CFTR F508del viability 10 ug/mL | others
O=c1[nH]c(=O)n([C@H]2C[C@H](O)[C@@H](CO)O2)cc1F | i | / | / | CFTR F508del fold 25 µM=1.1;CFTR F508del viability 25 µM=97
CNC(=O)C1(c2cccc(Cl)c2)CCC1 | i | 0.97 | 79
CCOC(=O)c1cnc2c(cnn2CC)c1NN=C(C)C | i | / | / | CFTR F508del fold 25 µM=0.92;CFTR F508del viability 25 µM=78
O=C(NCc1ccc(S(=O)(=O)N2CCOCC2)s1)C1CCC1 | i | 0.98 | 95
CSc1ncc(C(=O)N2CCC2)n1-c1ccc(F)cc1 | i | 1.2 | 103
COc1ccc(C(NS(=O)(=O)N(C)C)c2nccn2C)cc1 (stereo unspecified) | i | 1 | 76
CC1(C)NC(=O)N(Cc2nnc(-c3ccc(Br)cc3)o2)C1=O | i | 0.94 | 97
CC(C)(C)c1cc(NC(=O)C2CC2)n(C2CCS(=O)(=O)C2)n1 (stereo unspecified) | i | 1.1 | 96
CCn1c(N2CCOCC2)nn(CN2CCN(S(=O)(=O)c3ccc(F)cc3)CC2)c1=S | i | 1.1 | 103
CC(=O)SCC(Cc1ccccc1)C(=O)NCC(=O)OCc1ccccc1 (stereo unspecified) | i | / | / | CFTR F508del fold 25 µM=1.1&1.1&1;CFTR F508del viability 25 µM=103&113&99
COc1ccc(-n2ccnc2SCc2nc3ccccc3[nH]2)cc1 | i | 0.84 | 81
CCCN1C(=O)C(=O)N(CC(=O)c2cc(C)n(CC)c2C)C1=O | i | 1.1 | 98
Cc1nc2c(cnn2C(C)C)c(C)c1CCC(=O)NC1CC1 | i | 0.98 | 96
CCCCCCCCCCCCCCCC[n+]1ccccc1 | i | / | / | CFTR F508del fold 25 µM=0.59;CFTR F508del viability 25 µM=12
O=C1CCOc2c(F)cccc21 | i | 1.1 | 90
CC12CCC(=O)N1C(C(=O)NCC1COc3ccccc3O1)CS2 (stereo unspecified) | i | 1 | 95
CN1CCN(C2=Nc3ccccc3Oc3ccc(Cl)cc32)CC1 | i | / | / | CFTR F508del fold 25 µM=1;CFTR F508del viability 25 µM=100
CC(C)NC(=O)C(C)Sc1nnc(C2CC2)n1C1CC1 (stereo unspecified) | i | 0.94 | 103
CC1CCC2(CC1)NC(=O)N(CC(=O)NC(C)(C#N)C(C)C)C2=O (stereo unspecified) | i | 1 | 94
Cc1nn(CN2CCCC(NS(C)(=O)=O)C2)c(=S)n1C (stereo unspecified) | i | 1.1 | 96
COc1ccc(OCCSc2nnc(-c3ccc(F)cc3)c3ccccc23)cc1 | i | 1.1 | 97
COc1ccc(OC)c2c1CN(Cn1c(=O)oc3ccc(Cl)cc31)CC2O (stereo unspecified) | i | 1 | 97
O=S(=O)(c1ccc(Br)cc1Cl)N1CCN(c2ncccc2Cl)CC1 | i | 0.92 | 95
c1cc(-c2noc(CSC3=NCCS3)n2)cs1 | i | 1 | 83
N#CCCCSc1ncnc2c1cnn2-c1ccccc1 | i | 0.84 | 91

Of the compounds above, 4 have a COOH group.
SMILES | CFTR F508del | CFTR F508del fold 10 ug/mL | CFTR F508del viability 10 ug/mL | others
CCCc1cc(C(=O)NC(CCC(=O)O)C(=O)O)sc1C (stereo unspecified) | i | 1 | 102
O=C(O)CN1CCN(CC(=O)O)CC1 | i | 1.1 | 89
CCN1CCN(C(=O)N[C@@H](C(=O)N[C@@H]2C(=O)N3[C@@H]2SC(C)(C)[C@@H]3C(=O)O)c2ccccc2)C(=O)C1=O | i | / | / | CFTR F508del fold 25 µM=1.1;CFTR F508del viability 25 µM=99
O=C(O)CCC(NC(=O)C12CC3CC(CC(C3)C1)C2)C(=O)O (stereo unspecified) | i | 1.1 | 104

(listing goes on)
SMILES | CFTR F508del | CFTR F508del fold 10 ug/mL | CFTR F508del viability 10 ug/mL | others
CN(Cc1nc2ccsc2c(=O)[nH]1)C(=O)NCC(C)(C)N1CCOCC1 | i | 1.1 | 110
CNS(=O)(=O)c1ccc(C(=O)N(C)C2CCCCC2)o1 | i | 0.93 | 103
CS(=O)(=O)N1CCN(CN2C(=O)CC3(CCCC3)C2=O)CC1 | i | 1 | 108
O=C(OC1CCOC1=O)c1cc(S(=O)(=O)N2CCOCC2)ccc1F (stereo unspecified) | i | 1 | 95
COc1ccc(C(CNc2cc(C)nc3ncnn23)N2CCOCC2)cc1 (stereo unspecified) | i | 1 | 85
C[C@@H]1CCCN1CCC1Cc2cc(-c3ccc(C#N)cc3)ccc2O1 (stereo partly specified) | i | 1 | 77
C[C@H]1[C@@H](OC(=O)CCC(=O)O)O[C@@H]2OC3(C)CC[C@H]4[C@H](C)CC[C@@H]1[C@@]24OO3 | i | / | / | CFTR F508del fold 25 µM=0.92;CFTR F508del viability 25 µM=111
CC1(C)C(C(=O)O)N2C(=O)C[C@H]2S1(=O)=O (stereo partly specified) | i | / | / | CFTR F508del fold 25 µM=0.98;CFTR F508del viability 25 µM=104
O=C(NOCc1ccccc1)N1CCN(c2ncccn2)CC1 | i | 1.1 | 85
CC1CC(=O)Nc2ccccc2N1C(=O)CN1C(=O)NC(C)(C2CC2)C1=O (stereo unspecified) | i | 0.98 | 94
C=CCn1c(SCC(=O)N(C)C2CCS(=O)(=O)C2)nc2sc(CC)cc2c1=O (stereo unspecified) | i | 1 | 90
O=C(CSC1=NCCS1)N1CCN(S(=O)(=O)c2ccc(Cl)s2)CC1 | i | 0.9 | 83
CCONC(=O)CC12CC3CC(CC(Br)(C3)C1)C2 | i | 1 | 81
CN(C)CCCN1C(=O)C(O)=C(C(=O)c2ccco2)C1c1ccc(Cl)cc1 (stereo unspecified) | i | 1.1 | 91
Oc1ccc2ccccc2c1 | i | / | / | CFTR F508del fold 25 µM=1;CFTR F508del viability 25 µM=79
O=C(O)C1CSC23CCCCC2CC(=O)N13 (stereo unspecified) | i | 1.1 | 86
CCC1=C(C(=O)OC)C(c2ccc(SC)cc2)NC(=S)N1 (stereo unspecified) | i | 1.1 | 96
COc1ccc(Cl)cc1COc1cc(F)ccc1[N+](=O)[O-] | i | 1.1 | 90
O=C(CCCSc1n[nH]c(C2CCCC2)n1)c1cccs1 | i | 0.95 | 93
COC(=O)c1sccc1S(=O)(=O)NC1CCCC1 | i | 0.98 | 87

Quoted at random: 3 compounds from above
SMILES | CFTR F508del | CFTR F508del fold 10 ug/mL | CFTR F508del viability 10 ug/mL | others
COC(=O)c1sccc1S(=O)(=O)NC1CCCC1 | i | 0.98 | 87
CC1(C)NC(=O)N(Cc2nnc(-c3ccc(Br)cc3)o2)C1=O | i | 0.94 | 97
COc1ccc(C(NS(=O)(=O)N(C)C)c2nccn2C)cc1 (stereo unspecified) | i | 1 | 76

3 compounds out of the list, sorted by SMILES length, ascending:
SMILES | CFTR F508del | CFTR F508del fold 10 ug/mL | CFTR F508del viability 10 ug/mL | others
CC1(C)C(C(=O)O)N2C(=O)C[C@H]2S1(=O)=O (stereo partly specified) | i | / | / | CFTR F508del fold 25 µM=0.98;CFTR F508del viability 25 µM=104
COc1ccc(C(CNc2cc(C)nc3ncnn23)N2CCOCC2)cc1 (stereo unspecified) | i | 1 | 85
C[C@H]1[C@@H](OC(=O)CCC(=O)O)O[C@@H]2OC3(C)CC[C@H]4[C@H](C)CC[C@@H]1[C@@]24OO3 | i | / | / | CFTR F508del fold 25 µM=0.92;CFTR F508del viability 25 µM=111
